# Assay outcomes (PubChem BioAssay)
# NS1 function inh: qHTS Assay for Inhibitors of Influenza NS1 Protein Function; S. cerevisiae slowed by influenza A NS1, growth recovery by OD600; Potency, µM (titrated, usually from 46.1 µM), for the others: at the top dose activity, positive = more growth; 0.4% of 270,000 active; note: actives are rising curves; nearly all actives have a fitted effect of over 50% in size
#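 Growth recovery, yeast-based: influenza A NS1 expressed in S. cerevisiae causes slow growth, and suppressors are detected by OD600. The parent strain without NS1 is used as positive control.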
# Cruzain inh Det: qHTS Assay for Promiscuous and Specific Inhibitors of Cruzain (with detergent); purified cruzain, Z-FR-AMC fluorescence, 0.01% Triton; Potency, µM, for the others: max response, negative = inhibition, usual class: inhibitors; 0.43% of 200,000 active; active = well fitted curve in the direction sought with a large enough effect; inconclusive = small, poorly fitted or top-dose-only effect, or another doubt; inactive = no such curve, though single readings can be large; an effect the other way counts as inactive or inconclusive;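 note: plate controls were neutral wells for no effect and buffer without enzyme for full effect; nearly all actives have a fitted effect of over 40% in size; top concentration of the series not given in the record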
# Target sequence (P25779 123-467 limits assumed): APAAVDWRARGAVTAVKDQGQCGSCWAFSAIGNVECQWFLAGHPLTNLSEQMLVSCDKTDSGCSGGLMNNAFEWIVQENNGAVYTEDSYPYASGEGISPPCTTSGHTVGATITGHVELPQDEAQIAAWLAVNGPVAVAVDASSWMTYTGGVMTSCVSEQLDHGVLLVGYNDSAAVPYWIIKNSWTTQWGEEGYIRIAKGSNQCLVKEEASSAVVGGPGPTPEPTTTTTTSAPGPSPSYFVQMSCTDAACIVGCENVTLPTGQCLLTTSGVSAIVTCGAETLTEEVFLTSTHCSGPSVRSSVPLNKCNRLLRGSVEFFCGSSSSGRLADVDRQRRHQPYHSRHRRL
#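 Compounds were screened in titration against cruzain (1.5 nM) with 0.01% Triton X-100 to counter colloidal aggregation. Activity was the AMC fluorescence increase over 60 s after adding 2 uM Z-FR-AMC at pH 5.5.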
# Cruzain noTriton: qHTS Assay for Promiscuous and Specific Inhibitors of Cruzain (without detergent). Potency, µM, without a hit: max response, negative = inhibition, actives largely listed as inhibitors. Cruzipain (Trypanosoma cruzi), P25779. 2.3% of 200,000 active. purified cruzain, Z-FR-AMC fluorescence, no detergent; active = well fitted curve in the direction sought with a large enough effect; inconclusive = small, poorly fitted or top-dose-only effect, or another doubt; inactive = no such curve, though single readings can be large; an effect the other way counts as inactive or inconclusive;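 note: plate controls were enzyme without inhibitor for no effect and buffer without enzyme for full effect; nearly all actives have a fitted effect of over 40% in size; top concentration of the series not given in the record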
#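 Detergent-free condition (0.00005% Triton X-100) in acetate buffer pH 5.5 with DTT. 1.5 nM enzyme and compound were pre-mixed 15 min, then 2 uM Z-FR-AMC substrate added; reaction progress from fluorescence change between first and third reads (60 s).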
# RE007 growth inh: qHTS Assay for Inhibitors of the HIV-1 protein Vpr | S. pombe RE007 Vpr strain, BacTiter-Glo ATP luminescence, 24 h; control for the full effect not named in the record | Potency, µM (doses to about 92.2 µM), without a hit: top-dose activity change, negative = less growth | 0.21% of 360,000 active; active = well fitted falling curve with a large enough effect; inconclusive = small, poorly fitted or top-dose-only effect; inactive = no such curve, though single readings can be large or run the other way;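 note: % is set by controls: 0 for no effect and ±100 for the full control effect; nearly all actives have a fitted effect of over 50% in size; the assay follows cell death caused by Vpr and the record does not say whether a fall means rescue or toxicity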
#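 Fission yeast RE007 carrying one integrated HIV-1 vpr copy, seeded at OD 0.01 in PMG+AL medium with 23 nL pinned compound. Grown 24 h at 30 degrees; viability read by BacTiter-Glo luminescence after 5 min.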
# SARS PLpro yeast: qHTS of Yeast-based Assay for SARS-CoV PLP | S. cerevisiae expressing SARS-CoV PLpro, growth rescue; control for the full effect not named in the record | Potency, µM (top dose mostly 32.9 µM), without a hit: top-dose activity, positive = growth rescue | 0.19% of 330,000 active | AID 485353, 2010; note: 0% is about no effect; nearly all actives have a fitted effect of over 55% in size; growth read by luminescence after 48 h
# MARV entry inh: qHTS for inhibitors of binding or entry into cells for Marburg Virus | 1.8% of 300,000 active | Potency, µM (titrated, usually from 37.8 µM), for the others: top-dose activity change, negative = inhibition, hits mostly inhibitors | Marburg virus pseudotyped entry inhibition, cell reporter; control for the full effect not named in the record; about a third of the inactives were read at about 46 µM; active = well fitted inhibition curve with a large enough effect; inconclusive = small, poorly fitted or top-dose-only effect, or effect the other way; inactive = flat fitted curve, though single readings scatter; tested in HEK293 cells; about a fifth of its hits are not listed in these tables; note: % is set by controls: 0 for no effect and ±100 for the full control effect; luciferase read-out
# StopGo reporter: High Throughput Screening for Foot and Mouth Disease Virus Antivirals; human cells with a luciferase reporter of 2A StopGo recoding; control for the full effect not named in the record; Potency, µM (doses to about 57.9 µM), for the others: at the top dose signal change, negative = less light; 1.2% of 410,000 active; active = well fitted falling curve with a large enough effect; inconclusive = small, poorly fitted or top-dose-only effect; inactive = no such curve, though single readings can be large or run the other way; tested in HEK293T cells; note: % is set by controls: 0 for no effect and ±100 for the full control effect; nearly all actives have a fitted effect of over 45% in size; luciferase light after 4 h
# Lassa entry inh: qHTS for Inhibitors of binding or entry into cells for Lassa Virus | Potency, µM (top dose mostly 37.9 µM), for inactives: at the highest dose activity change, negative = inhibition, hits mostly inhibitors | 1.2% of 300,000 active | Lassa virus pseudotype entry inhibition, cell reporter; control for the full effect not named in the record; active means well fitted inhibition curve with a large enough effect; inconclusive means small, poorly fitted or top-dose-only effect, or effect the other way; inactive means flat fitted curve, though single readings scatter; tested in HEK293 cells; note: % is set by controls: 0 for no effect and ±100 for the full control effect; nearly all actives have a fitted effect of over 50% in size; luciferase read-out
# Starred values were filed as active, the others as inactive; ? = inconclusive; nt = no result given; & = joins results of further samples; [ ] = dose if it differs, or a comment. Unless noted, calls come from the whole dose curve; as a rule, active means well fitted rising curve with a large enough effect; inconclusive means small, poorly fitted or top-dose-only effect; inactive means no such curve, though single readings can be large or run the other way. Potency is the fitted concentration of half-maximal effect.
smiles,NS1 function inh,Cruzain inh Det,Cruzain noTriton,RE007 growth inh,SARS PLpro yeast,MARV entry inh,StopGo reporter,Lassa entry inh
COCCOc1cc2ncnc(N3CCC(C(=O)O)CC3)c2cc1OCCOC,1.0%,nt,nt,-3.6%,-1.3%,-2.1%,-6.6%,?
CCOC(=O)N1CCN(C(=O)c2ccc(Cn3c(=S)[nH]c4ccc(Br)cc4c3=O)cc2)CC1,12.2%,nt,nt,-3.6%,1.0%,?,?,3.98µM*
Cc1cccnc1NC(=O)CCCc1c[nH]c2ccccc12,14.7%,nt,nt,-1.3%,-0.4%,4.8%[46.1 µM],12.2%,5.3%[46.1 µM]
CC(=O)Oc1ccc(/C=N/NC(=O)c2ccc(N(C)S(=O)(=O)c3ccccc3)cc2)cc1,-1.4%,nt,nt,29.7%,-2.2%,5.1%[46.1 µM],0.8%,-22.2%[46.1 µM]
NC(=O)CC(NC(=O)c1cccc(Br)c1)c1ccc(NC2CCCCCCCCCCC2)c([N+](=O)[O-])c1 (stereo not drawn),11.2%,nt,nt,-6.9%,-6.0%,nt,-23.2%,nt
O=C(Cn1c(SCCOc2ccccc2Cl)nc2ccccc21)N1CCOCC1,nt,-2.4%,-7.2%,nt,nt,9.3%[46.1 µM],-5.5%,21.0%[46.1 µM]
O=C(O)c1ccc(O)c(N2C(=O)Nc3ccccc3N2O)c1,-3.1%,-1.8%,7.0%,4.1%,?,14.4%,-17.4%,?
CC12CC3(C)CC(C)(C1)CC(NC(=O)N1CCCC1)(C2)C3,-42.0%,3.6%,2.3%,3.55µM*,-40.6%,?,?,-11.8%
COc1ccc(S(=O)(=O)N2CCOC2CNC(=O)C(=O)NCCN2CCOCC2)cc1OC (stereo not drawn),9.4%,nt,nt,5.2%,0.9%,?,-18.6%,-2.1%
COc1ccc(OC)c(NC(=O)CCN2C(=O)c3cccc([N+](=O)[O-])c3C2=O)c1,1.9%,nt,nt,14.6%,0.1%,nt,-5.8%,nt
CC(=O)NC1C(OCc2cccc(Br)c2)OC(COC(C)=O)C(OC(C)=O)C1OC(C)=O (stereo not drawn),nt,nt,nt,3.8%,-0.7%,-10.4%[14.2 µM],-9.4%,1.8%
O=C(Nc1ccc(C(F)(F)F)cc1)N1CCC(N2CCCCC2)CC1,nt,1.4%,5.6%,nt,nt,nt,-13.4%,?
Cc1cc(C)n2nc(CNC(=O)c3cccc(Cl)c3)nc2n1,nt,-6.7%,5.6%,nt,nt,-8.8%[46.1 µM],-11.0%,-3.8%[46.1 µM]
CSc1ncc(Cl)c(C(=O)Nc2c(C(=O)c3ccc(Cl)cc3)oc3ccccc23)n1,nt,-0.8%,-1.7%,nt,nt,21.7%[46.1 µM],6.5%,26.4%[46.1 µM]
Cc1cc(C)c(NS(=O)(=O)c2c(C)noc2C)c(C)c1,-23.6%,nt,nt,-3.0%,-9.7%,nt,-5.6%,nt
N[C@@H](C(=O)N[C@@H]1C(=O)N2C(C(=O)O)=C(Cl)CS[C@H]12)c1ccccc1,4.1%,-9.3%&0.4%,-3.6%&-5.3%,-0.7%,-5.5%,-43.8%,-14.1%,-0.1%
CC(C)CCOc1ccc(C2=NNC(=O)CC2)cc1,7.5%,-2.9%,-2.9%,36.7%,13.2%,29.7%[46.1 µM],39.8%[activator],6.6%
O=C(/C=C/c1ccco1)NCC1OCCc2ccccc21 (stereo not drawn),-3.0%,nt,nt,20.0%,-2.1%,-5.4%[46.1 µM],-7.6%,-1.2%
CC1Sc2ccc(S(=O)(=O)N3CCN(c4ccccc4)CC3)cc2NC1=O (stereo not drawn),20.1%,nt,nt,-10.3%,4.7%,nt,?,nt
COc1ccc(C2C3=C(CC(C)(C)CC3=O)N(C)C3=C2C(=O)CC(C)(C)C3)cc1,-3.1%,nt,nt,0.7%,-0.8%,-6.0%&-6.0%[46.1 µM],7.8%,0.7%[46.1 µM]
O=C(NCCN1CCCCC1)c1cc(OCC(F)(F)F)ccc1OCC(F)(F)F,-6.8%,4.4%,-4.6%,6.5%,-0.8%,-12.0%,-12.3%,-25.9%
Cc1ccc(NC(=S)N2CCCC(c3nc4ccccc4[nH]3)C2)cc1 (stereo not drawn),1.9%,nt,nt,-14.0%,-1.5%,-23.7%,13.9%,-4.0%
Cc1cc(=O)[nH]c(N/N=C/c2ccc(F)cc2)n1,4.4%,nt,nt,4.7%,-2.5%,-16.4%[46.1 µM],1.7%,20.1%[46.1 µM]
CN(C(=O)c1cc(-c2ccccc2O)on1)c1ccccc1,nt,-7.5%,-11.9%,nt,nt,?,0.5%,?
Cn1c(=NC(=O)C(C)(C)C)sc2cccc(F)c21,-6.2%,nt,nt,?,1.3%,nt,17.4%,nt
CSc1sc(C(=O)NC(=O)NCc2cccnc2)c(C)c1-c1ccon1,-7.5%,nt,nt,-5.8%,-0.1%,0.8%,-7.2%,-2.4%
COc1ccc(OC)c(NC(=O)CC2C(=O)NCCN2C(=O)C(F)(F)F)c1 (stereo not drawn),nt,0.9%,8.1%,nt,nt,nt,-1.3%,5.4%[46.1 µM]
NC(CO)C12CC3CC(CC(C3)C1)C2 (stereo not drawn),6.8%,nt,nt,2.9%,-0.4%,nt,-12.1%,nt
O=C(c1cccs1)N(C(=O)c1cccs1)c1ccccn1,-22.5%,3.6%,-17.8%,-4.8%,-1.5%,14.0%,nt,2.0%
COc1cccc(N2CCN(C(=O)C3CCCN(S(=O)(=O)c4ccc5c(c4)oc(=O)n5C)C3)CC2)c1 (stereo not drawn),6.3%,1.6%,8.2%,5.3%,-0.5%,-18.3%&-18.3%[46.1 µM],?,3.4%[46.1 µM]
N=c1c(C(=O)NCC2CCCO2)cc2c(=O)n3ccccc3nc2n1Cc1ccccc1 (stereo not drawn),10.8%,nt,nt,-12.0%,?,nt,-11.7%,nt
O=C(O)C1CC(O)CN1c1nc(Cl)ccc1[N+](=O)[O-] (stereo not drawn),4.0%,nt,nt,-4.1%,0.4%,1.3%[46.1 µM],-5.8%,15.9%[46.1 µM]
C[n+]1cccc2cccc([O-])c21,2.9%,nt,nt,4.2%,-1.1%,nt,-3.2%,nt
CC(=O)Nc1ccc(C=NNc2ccc([N+](=O)[O-])cn2)cc1,nt,nt,nt,-12.0%,nt,?,39.1%,10.6%[46.1 µM]
COC(=O)CN1C(=O)[C@H]2[C@@H](/C=C/c3ccccc3)N3C(=O)CN(Cc4ccccc4)C(=O)[C@@]3(Cc3ccccc3)[C@H]2C1=O,12.1%,nt,nt,-9.0%,-5.5%,nt,-23.4%,nt
NS(=O)(=O)c1cnccc1Nc1ccc(Cl)c(Cl)c1,-18.0%,-2.5%,-0.3%,-5.5%,19.4%,-1.0%,-18.9%,-1.8%
Cc1cc(C)c(S(=O)(=O)N2CCCCC2CCNC(=O)C(=O)NC2CC2)c(C)c1 (stereo not drawn),nt,nt,nt,16.9%,1.7%,?,-16.2%,0.891µM*
CCOC(=O)N1CCN(C(=O)c2cn(C)c3ccc(S(=O)(=O)N4CCOCC4)cc3c2=O)CC1,-6.4%,nt,nt,-20.0%,-4.6%,nt,-1.3%,nt
CCCCn1c(=O)n(C)c(=O)c2c(C(F)(F)F)cc(-c3ccncc3)nc21,-5.1%,-16.9%,-3.3%,-1.6%,-0.1%,2.8%,?,-0.7%
Cc1nn(-c2ccc(F)cc2)c(Cl)c1/C=C1\C(=O)Nc2ccccc21,0.3%,-6.0%,-10.5%,12.2%,-9.6%,?,?,?
COc1ccccc1CCNC(=O)C(=O)c1cn(CC(=O)N2CCOCC2)c2ccccc12,-8.3%,nt,nt,-8.7%,5.2%,17.0%[46.1 µM],17.2%,5.6%[46.1 µM]
O=C(O)c1ccccc1S(=O)(=O)c1ccccc1CO,-7.7%,5.5%,1.0%,6.2%,2.2%,3.7%[46.1 µM],12.4%,9.5%
COC(=O)c1cc(C(=O)Nc2ccc(Cl)cn2)cc([N+](=O)[O-])c1,nt,nt,nt,-10.1%,-1.2%,15.3%[46.1 µM],-9.3%,1.0%
Cc1ccc(S(=O)(=O)NC(=O)N(CCC#N)Cc2ccccc2)cc1,2.5%,nt,nt,6.8%,-0.1%,0.0%[46.1 µM],8.5%,30.7%[46.1 µM]
O=C(NNC(=O)C1CC(=O)N(c2ccc3c(c2)OCCO3)C1)c1ccc(F)cc1 (stereo not drawn),nt,nt,nt,-4.1%,-1.7%,11.4%,-7.7%,14.3%
Cc1ccc(CNC(=O)C2CCCN(c3cnccn3)C2)cc1 (stereo not drawn),-3.4%,nt,nt,-1.7%,4.8%,nt,-3.1%,nt
COc1ccc(/C=C/c2c(-c3ccc(OC)cc3)oc3ccccc23)cc1,15.2%,nt,nt,-0.9%,-10.3%,nt,-12.1%,nt
COc1ncccc1-c1nnn(-c2ccc(Cl)nc2)n1,-5.8%,nt,nt,-3.6%,12.3%,nt,78.4%[activator],nt
CCOC(=O)NC1=NCC(C)S1 (stereo not drawn),4.6%,nt,nt,-3.6%,1.3%,nt,4.0%,nt
CC(=O)Nc1ccc2nc(NC(=O)CS(=O)(=O)c3ccccc3)sc2c1,nt,nt,nt,-16.9%,1.5%,11.2%,20.7%,11.1%
O=C(C1CC1)N1CCc2cc(Br)cc(S(=O)(=O)N3CCN(c4ccccc4F)CC3)c21,nt,-0.1%,-9.0%,nt,nt,26.0%[46.1 µM],17.9%,25.9%[46.1 µM]
Cc1nnc(SCC(=O)NC(C)(C)C)n1NCc1ccc(Cl)cc1,-1.6%,nt,nt,1.6%,-0.2%,-1.1%[46.1 µM],-11.8%,-2.1%
COCCNC(=O)C(c1ccc(F)cc1)N(C(=O)CCC(=O)Nc1ccccn1)c1cccc(C)c1 (stereo not drawn),8.9%,nt,nt,0.7%,0.9%,-12.9%,-1.1%,26.8%
CCOc1ncccc1C(=O)OCC(=O)c1ccc(C)c(C)c1,nt,nt,nt,-6.4%,0.0%,-1.0%,41.3%[activator],?
